Assay outcomes deposited in PubChem by Broad Institute.
HIV Env fusion: blocks HIV Env-driven cell-cell fusion. HeLa-JRFL Env/CEM21 cell fusion, luciferase. inhibition, % at 12.3 µM. hit rate 1.1% among 360,000;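 active = mean replicate inhibition score of at least 50 and every replicate individually at or above 50; inconclusive = only one of the two criteria met; inactive = mean below 50 and not all replicates reaching 50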;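 note: 0% = plate neutral controls and 100% = maraviroc near 300 nM; one replicate is shown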
The depositor's hits bear a star; ? = inconclusive; [ ] = another dose, or the depositor's remark. This is a subset; count on the stated rates, not on these rows.

mol	HIV Env fusion
COC(=O)C[C@@H]1C[C@@H]2c3cc(NS(C)(=O)=O)ccc3O[C@@H]2[C@H](CO)O1	21.6[16.7 µM]
COc1ccccc1NC(=O)N[C@@H]1CC[C@@H](CCn2cc(C3(O)CCCC3)nn2)O[C@@H]1CO	3.4[16.7 µM]
COc1cccc(CNC(=O)C[C@@H]2C=C[C@@H](NC(=O)C3CCC3)[C@@H](CO)O2)c1	-10.8[16.7 µM]
O=C(NS(=O)(=O)c1ccccc1[N+](=O)[O-])[C@H]1O[C@@H](n2ccc(=O)[nH]c2=O)[C@H](O)[C@@H]1O	8.3
C[C@H]1CN([C@@H](C)CO)C(=O)c2c(c3ccccc3n2C)-c2ccccc2CO[C@@H]1CN(C)C(=O)Nc1ccc2c(c1)OCO2	49.4[16.7 µM]
C[C@@H]1CN([C@@H](C)CO)C(=O)CCCn2nncc2CO[C@@H]1CN(C)Cc1ccccc1	15.8[16.7 µM]
COC(=O)[C@]12C[C@H](CC(=O)N3CCN(C(=O)C4CC4)CC3)C(=O)N(Cc3ccc4c(c3)OCO4)C1=C[C@H](COCc1ccccc1)O[C@@H]2C	37.9
COC(=O)C1=C(C)NC(C)=C(C(=O)OC)C(N2C(=O)CCC2=O)C1 (stereo unspecified)	-1.1
C=CC[C@]12C[C@@]3(O[C@H](c4ccccn4)N=C3C[C@H](c3ccc(OC)cc3)[C@H]1C)N(C1CCN(Cc3ccccc3)CC1)C2=O	3.1
C[C@@H]1CN([C@@H](C)CO)S(=O)(=O)c2ccc(-c3cncnc3)cc2O[C@@H]1CN(C)C(=O)c1cccc(F)c1	-6.0[16.7 µM]
CO[C@@H]1CC[C@@H]2CCN(C)C(=O)CCCN(C)C(=O)c3cccc(C#N)c3OC[C@@H]1O2	11.3[16.7 µM]
C[C@@H]1CN([C@H](C)CO)C(=O)Cc2cc(NC(=O)Cc3cn(C)c4ccccc34)ccc2O[C@@H]1CN(C)S(=O)(=O)c1ccc(Cl)cc1	-23.4[16.7 µM]
COC(=O)C1=C(C)N(C)C(=NCc2ccc(OC)cc2)NC1c1cccc(Cl)c1 (stereo unspecified)	-10.4
C[C@@H]1CN([C@@H](C)CO)C(=O)Cc2cc(NS(C)(=O)=O)ccc2O[C@@H]1CN(C)Cc1ccc(-c2ccccc2)cc1	1.8[16.7 µM]
C[C@H]1CN([C@@H](C)CO)C(=O)c2cc(NC(=O)CCN3CCOCC3)ccc2O[C@@H]1CN(C)C(=O)Nc1cccc2ccccc12	-7.1[16.7 µM]
COc1ccccc1C(=O)Nc1ccc2c(c1)OC[C@@H](C)N(C(C)=O)C[C@H](C)[C@@H](OC)CN(C)C2=O	0.5[16.7 µM]
COC(=O)[C@H]1[C@H](CO)[C@H]2Cn3c(ccc(-c4cccc(OC)c4)c3=O)[C@H]2N1Cc1nccs1	1.9[16.7 µM]
CO[C@H]1CN(C)C(=O)c2ccc(NC(=O)C3CCCCC3)cc2OC[C@@H](C)N(Cc2cccnc2)C[C@@H]1C	-34.5[16.7 µM]
O=C(NCCc1ccccc1Cl)[C@@H]1CCCN1C(=O)[C@@H](NS(=O)(=O)c1ccc(F)cc1F)C1CCCCC1	6.5
O=C1NC(c2ccc(Br)cc2)c2c(-c3ccccc3)n[nH]c21 (stereo unspecified)	-9.0
C[C@H]1CN([C@@H](C)CO)C(=O)c2cc(-c3ccc(F)cc3)cnc2O[C@H]1CN(C)C(=O)c1ccncc1	11.9[16.7 µM]
CN1[C@@H]2Cn3c(ccc(-c4cccc(F)c4)c3=O)[C@H]1[C@@H](C(=O)Nc1nccs1)[C@@H]2CO	1.7[16.7 µM]
O=C(C[C@H]1CC[C@@H]2[C@H](COC[C@@H](O)CN2Cc2cc(F)cc(F)c2)O1)Nc1nccs1	-4.8[16.7 µM]
C[C@H](NC(=O)C[C@@H]1CC[C@@H]2[C@H](COC[C@H](O)CN2C(=O)Nc2cccc(Cl)c2)O1)c1ccccc1	5.5[16.7 µM]
C[C@H]1CN([C@@H](C)CO)C(=O)c2ccccc2-c2ccccc2CO[C@@H]1CN(C)S(=O)(=O)c1cn(C)cn1	0.8[16.7 µM]
CN1C(=O)c2cc(NC(=O)Cc3cccs3)ccc2OC[C@H]2O[C@@H](CC(=O)N[C@@H]3CCN(Cc4ccccc4)C3)CC[C@@H]21	-17.3[16.7 µM]
COc1cccc(S(=O)(=O)N(C)C[C@H]2OCc3ccccc3-c3c(n(C)c4ccccc34)C(=O)N([C@H](C)CO)C[C@@H]2C)c1	38.4[16.7 µM]
CCOC(=O)N(C)[C@H]1C[C@H]2c3cc(-c4ccccc4C)ccc3CCN2C[C@H]1[C@H](C)O	19.4
C[C@@H]1CCCCO[C@H](CN(C)C(=O)C2CCCCC2)[C@H](C)CN([C@H](C)CO)C(=O)c2cc(N(C)C)ccc2O1	-29.4[16.7 µM]
O=C(Nc1ccc2c(c1)[C@@H]1C[C@H](CC(=O)N3CCCCC3)O[C@H](CO)[C@@H]1O2)NC1CCCC1	-19.6[16.7 µM]
COc1cccc(S(=O)(=O)Nc2ccc3c(c2)[C@H]2C[C@@H](CC(=O)NC4CCCCC4)O[C@H](CO)[C@H]2O3)c1	-39.3[16.7 µM]
COc1ccc(S(=O)(=O)Nc2ccc3c(c2)C(=O)N([C@H](C)CO)C[C@H](C)[C@H](CN(C)C)OCCCC[C@H](C)O3)cc1	18.8[16.7 µM]
CO[C@@H]1CN(C)C(=O)c2ccc(NC(=O)c3cc(C)on3)cc2OC[C@H](C)N(C)C[C@@H]1C	-0.6[16.7 µM]
O=C(Nc1ccc(C(F)(F)F)cc1)Nc1ccc2c(c1)[C@H]1C[C@@H](CC(=O)N3CCc4ccccc4C3)O[C@@H](CO)[C@H]1O2	?
COc1ccc(C(=O)Nc2ccc3c(c2)OC[C@@H](C)N(C)C[C@@H](C)[C@H](OC)CN(C)C3=O)cc1	3.9[16.7 µM]
Cn1c(=O)n2n(c1=O)[C@H](C1CC1)C=C1CN3[C@@H]([C@H](Cc4ccccc4)OC(=O)[C@@H]3Cc3ccccc3)[C@@H]12	-1.4[16.7 µM]
C[C@@H]1CN([C@@H](C)CO)C(=O)c2cc(NS(=O)(=O)c3cn(C)cn3)ccc2O[C@@H](C)CCCCO[C@H]1CN(C)C	16.7[16.7 µM]
C[C@@H]1CN([C@H](C)CO)C(=O)c2cc(NC(=O)Nc3cccc4ccccc34)ccc2O[C@@H](C)CCCCO[C@H]1CN(C)C	-5.3[16.7 µM]
COc1ccc(C2CC(=O)C(c3ccc([N+](=O)[O-])cc3)=CN2Cc2ccccc2)cc1 (stereo unspecified)	-2.3
O=c1[nH]c(-c2ccccc2)cn1C1CCN(Cc2ccc(-c3nc4ccc(F)cc4nc3-c3ccccc3)cc2)CC1	4.3
O=C1NC(Cc2ccccc2)c2nc3ccc(Br)cc3c(=O)n2-c2cc(Cl)ccc21 (stereo unspecified)	?
C/C=C/c1cccc(-c2nc(C(=O)NCc3ccccc3)cc3c2[C@@H](CCO)N([S@](=O)C(C)(C)C)C3)c1	-3.6[16.7 µM]
Cc1cc(C(=O)Nc2ccc3c(c2)C(=O)N(C)[C@@H]2CC[C@@H](CC(=O)NC4CCCC4)O[C@H]2CO3)no1	4.5[16.7 µM]
C[C@@H]1CN([C@@H](C)CO)C(=O)Cc2cc(NS(=O)(=O)c3ccccc3)ccc2O[C@@H]1CN(C)C(=O)Nc1ccc2c(c1)OCO2	-1.8[16.7 µM]
CC=Cc1ccc2n(c1=O)C[C@H]1[C@H](CO)[C@@H](C(=O)NCCc3cn(C)cn3)N(C(=O)C3CCC3)[C@@H]21 (mixture of isomers)	1.3[16.7 µM]
COCC(=O)N(C)C[C@H]1Oc2cc(C#CC3CCCC3)ccc2S(=O)(=O)N([C@@H](C)CO)C[C@@H]1C	7.0[16.7 µM]
CO[C@H]1CC[C@@H]2CCOc3c(C#N)cccc3C(=O)N(C)C[C@@H](OC)[C@@H](C)C(=O)N(C)C[C@H]1O2	14.4[16.7 µM]
COc1ccc(S(=O)(=O)N(C)C[C@@H]2Oc3ncc(/C=C/c4ccccc4)cc3C(=O)N([C@H](C)CO)C[C@H]2C)cc1	-8.5[16.7 µM]
CO[C@H]1CN(C)C(=O)c2cc(NS(=O)(=O)c3c(C)noc3C)ccc2OC[C@H](C)NC[C@@H]1C	2.4[16.7 µM]
CCc1c(-c2ccc(OC)c(OC)c2)ncn1CCc1ccccc1OC	6.5
CO[C@H]1CN(C)C(=O)c2cc(NC(C)=O)ccc2OC[C@@H](C)N(S(=O)(=O)c2cn(C)cn2)C[C@@H]1C	4.8[16.7 µM]
CO[C@H]1CC[C@@H]2CCOc3ccc(C#N)cc3C(=O)N(C)[C@@H](C)C(=O)N(C)C[C@H]1O2	5.2[16.7 µM]
CC(C)C[C@@H]1COc2cc(F)ccc2S(=O)(=O)N1	9.2
CCC(=O)Nc1ccc2c(c1)OC[C@@H](C)N(CC1CCCCC1)C[C@H](C)[C@@H](OC)CN(C)C2=O	29.0[16.7 µM]
C[C@@H]1CN([C@H](C)CO)C(=O)c2cc(NC(=O)Nc3ccccc3)ccc2O[C@@H](C)CCCCO[C@@H]1CN(C)Cc1ccncc1	-1.3[16.7 µM]
CCCN1C[C@H](C)[C@H](OC)CN(C)C(=O)c2cc(NS(C)(=O)=O)ccc2OC[C@@H]1C	-9.3[16.7 µM]
O=C(C[C@H]1CC[C@H]2[C@@H](COC[C@H](O)CN2Cc2cccc(C(F)(F)F)c2)O1)NCc1ccc(Cl)cc1	-2.4[16.7 µM]
C[C@H](CO)N1C[C@H](C)[C@H](CN(C)S(=O)(=O)c2cccc(F)c2)OCc2ccccc2-c2ccccc2C1=O	47.1[16.7 µM]
O=C(CN1CCOCC1)NCC[C@H]1CC[C@@H](NS(=O)(=O)c2ccc(F)cc2)[C@@H](CO)O1	4.0[16.7 µM]
C[C@@H]1CCCCO[C@H](CN(C)C(=O)c2ccncc2)[C@H](C)CN([C@H](C)CO)C(=O)c2cc(NC(=O)c3ccncc3)ccc2O1	16.8[16.7 µM]

Continued; the last 2 above are carried over.
mol	HIV Env fusion
O=C(CN1CCOCC1)NCC[C@H]1CC[C@@H](NS(=O)(=O)c2ccc(F)cc2)[C@@H](CO)O1	4.0[16.7 µM]
C[C@@H]1CCCCO[C@H](CN(C)C(=O)c2ccncc2)[C@H](C)CN([C@H](C)CO)C(=O)c2cc(NC(=O)c3ccncc3)ccc2O1	16.8[16.7 µM]
O=C(Nc1ccc2c(c1)[C@H]1C[C@@H](CC(=O)N3CCOCC3)O[C@@H](CO)[C@H]1O2)Nc1ccccc1F	-18.4[16.7 µM]
COc1cccc(/C=C2/Sc3ccc(C(=O)NC4CC4)cc3NC2=O)c1	-2.9
COc1ccc(NC(=O)N2CC3(C2)CN(C(=O)CN2CCOCC2)[C@H](CO)c2[nH]c4cc(OC)ccc4c23)cc1	-3.6[16.7 µM]
C[C@@H](NC(=O)C[C@H]1C[C@@H]2c3cc(NC(=O)C4CCC4)ccc3O[C@@H]2[C@H](CO)O1)c1ccccc1	-24.6[16.7 µM]
C[C@@H]1CCc2cnnn2COC[C@@H](c2ccccc2)NC1=O	17.1[16.7 µM]
Cc1noc(C)c1S(=O)(=O)N(C)C[C@@H]1Oc2ccc(NS(=O)(=O)c3ccc(F)cc3)cc2CC(=O)N([C@@H](C)CO)C[C@H]1C	-6.5[16.7 µM]
CO[C@@H]1CN(C)C(=O)c2ccc(NC(=O)c3cccc(Oc4ccccc4)c3)cc2OC[C@H](C)NC[C@@H]1C	12.8[16.7 µM]
COC(=O)C[C@@H]1CC[C@@H]2[C@H](COc3ccc(NC(=O)c4cccc(Cl)c4)cc3C(=O)N2C)O1	4.7[16.7 µM]
Cc1ccc(S(=O)(=O)N(C)C[C@H]2Oc3ccc(NS(=O)(=O)c4ccc(Cl)cc4)cc3C(=O)N([C@H](C)CO)C[C@H]2C)cc1	-26.5[16.7 µM]
C[C@@H]1CCCCO[C@H](CN(C)C)[C@H](C)CN([C@@H](C)CO)C(=O)c2cc(NS(C)(=O)=O)ccc2O1	-4.7[16.7 µM]
CO[C@H]1CN(C)C(=O)c2cc(NC(C)=O)ccc2OC[C@H](C)N(S(=O)(=O)c2cn(C)cn2)C[C@@H]1C	-7.8[16.7 µM]
O=C(C[C@@H]1C=C[C@@H](NC(=O)c2ccccc2)[C@@H](CO)O1)NCc1ccc(Oc2ccccc2)cc1	?
C[C@@H]1CN([C@@H](C)CO)C(=O)c2cccc(N(C)C)c2O[C@@H]1CN(C)C(=O)Nc1ccc(C(F)(F)F)cc1	9.8[16.7 µM]
C[C@@H]1COc2cc(N3CCCC3)ccc2S(=O)(=O)N1	-2.7
COCCNC(=O)C[C@H]1C[C@@H]2c3cc(NS(=O)(=O)c4ccccc4)ccc3O[C@@H]2[C@H](CO)O1	-8.0[16.7 µM]
Cc1ccc(-c2ccc3c(c2)O[C@@H](CN(C)C(=O)C2CCCCC2)[C@@H](C)CN([C@@H](C)CO)S3(=O)=O)cc1	9.0[16.7 µM]

3 records drawn at random from the list so far, as already listed:
mol	HIV Env fusion
C[C@H]1CN([C@@H](C)CO)C(=O)c2cc(-c3ccc(F)cc3)cnc2O[C@H]1CN(C)C(=O)c1ccncc1	11.9[16.7 µM]
C/C=C/c1cccc(-c2nc(C(=O)NCc3ccccc3)cc3c2[C@@H](CCO)N([S@](=O)C(C)(C)C)C3)c1	-3.6[16.7 µM]
CO[C@H]1CN(C)C(=O)c2cc(NC(C)=O)ccc2OC[C@@H](C)N(S(=O)(=O)c2cn(C)cn2)C[C@@H]1C	4.8[16.7 µM]

Part of the list above in order of number of heavy atoms, high to low:
mol	HIV Env fusion
Cc1noc(C)c1S(=O)(=O)N(C)C[C@@H]1Oc2ccc(NS(=O)(=O)c3ccc(F)cc3)cc2CC(=O)N([C@@H](C)CO)C[C@H]1C	-6.5[16.7 µM]
COc1ccc(NC(=O)N2CC3(C2)CN(C(=O)CN2CCOCC2)[C@H](CO)c2[nH]c4cc(OC)ccc4c23)cc1	-3.6[16.7 µM]
O=C(Nc1ccc2c(c1)[C@H]1C[C@@H](CC(=O)N3CCOCC3)O[C@@H](CO)[C@H]1O2)Nc1ccccc1F	-18.4[16.7 µM]
